Env fusion inh: inhibitors of HIV Env-mediated cell fusion; inhibition, % at 12.3 µM; HeLa-JRFL Env/CEM21 cell fusion, luciferase; actives 1.1% (n = 360,000);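 active means mean replicate inhibition score of at least 50 and every replicate individually at or above 50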;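 further: 0% = plate neutral controls and 100% = maraviroc near 300 nM; one replicate is shown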
Rce1 inhib: yeast Ras-converting enzyme inhibition | yeast membranes, quenched prenylated peptide cleavage fluorescence | calls only | actives 0.27% (n = 290,000);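 active means fall in fluorescence gain of 50% or more versus controls, with final raw signal at or below 3038400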;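 further: plate controls were neutral control wells for no effect and wells lacking membranes for full effect; tested at 10 µM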
Target sequence (Q03530 whole entry, looked up): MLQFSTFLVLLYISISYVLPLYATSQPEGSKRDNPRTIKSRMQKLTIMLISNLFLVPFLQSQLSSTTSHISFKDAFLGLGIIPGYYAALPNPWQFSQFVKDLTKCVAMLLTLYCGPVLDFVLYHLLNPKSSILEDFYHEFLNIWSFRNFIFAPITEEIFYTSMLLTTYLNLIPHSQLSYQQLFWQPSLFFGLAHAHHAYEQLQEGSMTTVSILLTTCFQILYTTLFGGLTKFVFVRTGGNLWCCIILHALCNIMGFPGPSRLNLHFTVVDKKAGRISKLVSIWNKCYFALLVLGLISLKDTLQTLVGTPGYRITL
UUG fidelity: alters start codon recognition fidelity in yeast. S. cerevisiae UUG-firefly luciferase reporter, luminescence/redox ratio. activity score, % at 18.7 µM. actives 0.13% (n = 350,000);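 active means replicate mean at a twofold rise or more, about +100% in these data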;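 further: firefly luciferase made from a UUG start codon reports start codon fidelity; reporter light over untreated wells divided by growth signal over untreated wells; some hits fall short of that in this replicate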
MT1-MMP act inh: MT1-MMP (human) activation inhibition. P50281. HT1080 RFP-PRO-GFP cells, GFP/RFP ratio fluorescence, overnight; percent of plate control window, DMSO zero. GFP/RFP ratio change, % at 20 µM. actives 0.061% (n = 360,000). AID 651647;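 active means GFP/RFP ratio change of at least 30% with cell ATP level not reduced by more than half and red fluorescence within 50% of control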; further: strong numbers were not always called active
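Assay system – RFP-PRO-GFP reporter HT1080 cells · Compound dosing – single dose of 20 µM compound, 1% DMSO final · Incubation – overnight compound exposure at 37 °C · Measure – GFP/RFP fluorescence ratio · Benchmarks – DMSO wells and RFP-L50D-GFP cells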
eIF4H FP inh: inhibitors of RNA binding by human eIF4H; Q15056; eIF4H fluorescence polarization binding assay; inhibition, % at 35 µM; actives 0.94% (n = 290,000); AID 2012;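 active means 50% or more with normal probe brightness, or confirmed in later tests; about a fifth of its hits are not listed in these tables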;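 further: calls also rest on retests at 20 µM and on dose response follow-up; 0% = protein and probe with vehicle and 100% = probe without protein; strong numbers were not always called active; many hits fall short of the cut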
PABP polyA inh: blocks human PABP binding to poly(A) RNA; inhibition, % at 35 µM; P11940; fluorescence polarization; actives 1% (n = 290,000);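 active means 50% or more with normal probe brightness, or confirmed in later tests; about a fifth of its hits are not listed in these tables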;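 further: calls also rest on retests at 20 µM and on dose response follow-up; controls were probe without protein and protein plus probe with vehicle; some compounds called inactive have numbers as strong as hits; many hits fall short of the cut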
CSC inhib: cancer stem cell inhibition | cancer stem cell-like cells viability, luminescence | inhibition, % at 7.5 µM | AID 2717 | actives 1.1% (n = 300,000);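 active means mean at 75% or more and at least half the replicates too; tested in HMLE shEcad cells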;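 further: 0% = median of negative and 100% = median of positive control wells; the first replicate is given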
eIF4H FP inh retest: second read-out of eIF4H FP inh, no call of its own (marks repeat the call); inhibition, %; compound at 20 µM; confirmation average;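 mean of two retest wells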
PABP polyA inh retest: recorded beside PABP polyA inh, whose call it bears; inhibition, %; compound at 20 µM; confirmation repeats;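 mean of two retest wells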
MT1-MMP act inh RFP: recorded beside MT1-MMP act inh, whose call it bears; RFP signal change, %; measured here: RFP expression control read;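 0 = vehicle wells; hits needed this value within 50% of zero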
Numbers without * were called inactive; i = inactive; / = no result given; & = joins results of further samples. Some of the compounds tested. The share of hits here may be higher or lower than overall.

SMILES	Env fusion inh	Rce1 inhib	UUG fidelity	MT1-MMP act inh	MT1-MMP act inh RFP	eIF4H FP inh	PABP polyA inh	CSC inhib	others
CCOC(=O)C1CCCN(C(=O)c2ccc3oc(CCc4ccccc4)nc3c2)C1 (stereo unspecified)	-9	i	15	-2	4	4	6	-4
Cc1nc(N)nc(Nc2ccc(C#N)cc2)c1Br	34	i	/	2	-2	-2	8	-7
Cn1cnc2c(ncn2C2OC(CO)C(O)C2O)c1=S (stereo unspecified)	-9	/	-13	4	0	/	/	/
COc1cccc(N2CC(=O)Nc3c(oc4nc(-c5ccccc5)cc(C)c34)C2=O)c1	12	i	/	1	-3	1	-11	6
Cc1cccc(C(=O)OCC(=O)Nc2c(C)n(C)n(-c3ccccc3)c2=O)c1	-1	/	-1	0	1	/	/	/
C[C@@H]1CN([C@H](C)CO)C(=O)CCCn2nncc2CO[C@H]1CN(C)S(=O)(=O)c1cn(C)cn1	4	/	2&-7	9	17	/	/	/
O=C(O)CC(NC(=O)OCc1ccccc1)c1ccc(Br)cc1 (stereo unspecified)	-4	i	-2	7	6	-6	-6	-11
O=C(C[C@H]1C(=O)N(Cc2ccccc2)C[C@@H]1Cc1ccccc1)Nc1ccccc1	2	i	-9	-2	-8	-8	11	-14
COc1ccc(-c2ccc(C(C)=O)cc2)cc1[C@H]1[C@@H]2C=CCC[C@@]2(C)C(=O)N1Cc1ccccc1	14	/	-16	-13	-10	-9	3	68
NC12CC3CC(CC(C3)C1)C2	9	i	-11	-3	4	-7	-2	-7
O=C(NCc1ccccn1)c1ccc(CNS(=O)(=O)c2ccc(F)cc2)cc1	10	i	/	-1	1	-6	2	/
CC(=O)c1ccc(NC(=O)CSCC(=O)Nc2ccc3ccccc3c2)cc1	/	i	-5	0	-2	-2	8	-4
COC(=O)c1cccnc1-n1c(=O)c2cccnc2n(Cc2cccc(OC)c2)c1=O	28	i	-3	1	3	-14	3	0
COc1ccc(C(=O)Cn2nnc(-c3cccs3)n2)cc1	18	i	5	-1	4	-11	1	-16
O=C(COC(=O)Cc1c(F)cccc1Cl)NNC(=O)c1ccccc1	/	/	-14	-1	4	/	/	-9
O=C(NCCc1cccnc1)C1CCC(=O)N(Cc2ccc(Cl)cc2)C1 (stereo unspecified)	0	i	-8	-1	4	1	2	/
CCCCNC(=O)CCn1c(=O)c2ccccc2n(Cc2ccccc2C)c1=O	/	i	-9	3	0	-2	3	-4
COc1ccc(/C=C(\CC(=O)O)c2nc3ccccc3o2)cc1	-13	/	-19	-5	0	3	10	0
Cc1oc(/N=C/c2ccc3c(c2)OCO3)c(C#N)c1C	-4	i	1	2	12	16	30	/
COCCCNC(=O)C(C)N1c2cccc3cccc(c23)S1(=O)=O (stereo unspecified)	-16	i	16	0	-2	0	6	-10
Cc1ccc(NC(=O)c2cc(CC(C)C)nc3ccccc23)cc1	68*	i	-4	-10	-10	-1	2	-5
COC(=O)CNC(=O)COC(=O)/C=C/c1ccc(F)cc1	-2	i	/	-8	-13	-2	-8	-3
CC1(C)Cc2cccc(OCC(=O)N3CCN(c4ccc([N+](=O)[O-])cc4)CC3)c2O1	12	i	-8	1	-11	3	6	3
CC1(C)CC2CC(C)(CN2C(=O)c2cc(-c3ccc(F)cc3)on2)C1 (stereo unspecified)	-10	/	-14	-5	-8	-4	7	55
Cc1cccc(N2CCN(C(=O)COc3ccc4c(C)cc(=O)oc4c3C)CC2)c1C	-3	i	0	2	-9	/	/	16
Cc1ccc(C(=O)COC(=O)C(C)N2C(=O)C3C4C=CC(C4)C3C2=O)cc1C (stereo unspecified)	-9	i	-4	1	3	4	3	-5
Cc1cc2ccccc2c(=O)n1CC(=O)NCC(=O)N(C)C1CCCCC1	-14	/	-8	-3	-2	-2	-5	-13
Cc1ccc2nc(Cl)c(CN(C(=O)c3cnccn3)C3CCCCC3)cc2c1	/	i	9	-2	-7	-8	-2	-5
CCOc1ccc(C(C(=O)NC(C)(C)C)N(CCOC)C(=O)CCC(=O)Nc2nccs2)cc1 (stereo unspecified)	-18	i	-4	-2	0	5	5	-13
COc1ccc(/C=C2\SC(=O)N(CC(=O)NC3CCS(=O)(=O)C3)C2=O)cc1 (stereo unspecified)	-1	i	-9	6	3	-5	11	-11

Quoted at random: two records from the list, in no set order.
SMILES	Env fusion inh	Rce1 inhib	UUG fidelity	MT1-MMP act inh	MT1-MMP act inh RFP	eIF4H FP inh	PABP polyA inh	CSC inhib	others
O=C(C[C@H]1C(=O)N(Cc2ccccc2)C[C@@H]1Cc1ccccc1)Nc1ccccc1	2	i	-9	-2	-8	-8	11	-14
NC12CC3CC(CC(C3)C1)C2	9	i	-11	-3	4	-7	-2	-7

Later entries:
SMILES	Env fusion inh	Rce1 inhib	UUG fidelity	MT1-MMP act inh	MT1-MMP act inh RFP	eIF4H FP inh	PABP polyA inh	CSC inhib	others
CCOCN(C(=O)Cn1c(C(C)O)nc2ccccc21)c1c(C)cccc1CC (stereo unspecified)	/	i	-13	0	-3	8	0	-12
Cc1cccc(C)c1NC(=O)Cn1c(=O)n(CCC(=O)NCc2ccco2)c(=O)c2sccc21	/	i	/	7	2	-5	5	-14
Cc1cc(NC(=O)C2C3C(=O)N(CC4CCCO4)C(C(=O)NCc4ccccc4)C34C=CC2(C)O4)no1 (stereo unspecified)	/	i	/	2	5	4	6	-8
Cc1cc(N2CCCC2)n2nc(C)nc2n1	-3	i	-7	1	3	-1	-8	-9
CCOc1cccc(C(=O)Nc2ccc(NC(=O)c3ccccc3)c(C)c2)c1	-8	i	7	1	-6	-4	-7	3
Cc1cc(C)n2c(Br)c(CN3CCCC(C)C3)nc2n1 (stereo unspecified)	10	/	-9	2	3	-5	2	-4
Oc1ccc(Cl)cc1C=Nc1ccccc1Br	/	i	/	-3	1	-4	-4	-5
Cc1noc(C)c1CSc1ncnc2ccccc12	12	i	-5	-1	-1	8	2	9
COc1ccc2c(c1)OC13CCN(C)CC1C2C(C(=O)c1ccc(F)cc1)C(=O)N3 (stereo unspecified)	12	i	-7	-3	3	-1	6	-1
CN(C)C(=O)[C@H]1C[C@H]1[C@@H](O)[C@H](CO)NC(=O)[C@H](Cc1ccccc1)NC(=O)OC(C)(C)C	/	i	-15	2	4	-5	0	-2
COCCNC(=O)CN(C(=O)Cn1nnc2ccccc21)c1ccccc1C	12	i	/	-1	1	-5	-1	2
CC(C)Oc1ccc(S(=O)(=O)N2CCCCC2)cc1NC(=O)CN1C(=O)NC(C)(c2ccccc2)C1=O (stereo unspecified)	-3	i	-5	-1	-1	-2	2	1
CN(Cc1cccc(F)c1)C(=O)C1CC(=O)N(c2ccc3c(c2)OCCO3)C1 (stereo unspecified)	/	/	3	-3	-1	/	/	-12
COc1cccc(-c2cc(C(=O)Nc3ccc4c(c3)OCO4)no2)c1	-22	i	-9	3	-3	65	3	47	eIF4H FP inh retest=2;PABP polyA inh retest=0
CCc1ccc(NC(=O)C(C)OC(=O)Cn2[nH]c(=O)c3ccccc3c2=O)cc1 (stereo unspecified)	-1	/	-22	-2	6	/	/	/

A draw from above in order of molar mass, smallest number first.
SMILES	Env fusion inh	Rce1 inhib	UUG fidelity	MT1-MMP act inh	MT1-MMP act inh RFP	eIF4H FP inh	PABP polyA inh	CSC inhib	others
CN(Cc1cccc(F)c1)C(=O)C1CC(=O)N(c2ccc3c(c2)OCCO3)C1 (stereo unspecified)	/	/	3	-3	-1	/	/	-12
COc1ccc2c(c1)OC13CCN(C)CC1C2C(C(=O)c1ccc(F)cc1)C(=O)N3 (stereo unspecified)	12	i	-7	-3	3	-1	6	-1
CC(C)Oc1ccc(S(=O)(=O)N2CCCCC2)cc1NC(=O)CN1C(=O)NC(C)(c2ccccc2)C1=O (stereo unspecified)	-3	i	-5	-1	-1	-2	2	1

Carrying on:
SMILES	Env fusion inh	Rce1 inhib	UUG fidelity	MT1-MMP act inh	MT1-MMP act inh RFP	eIF4H FP inh	PABP polyA inh	CSC inhib	others
Cc1nc2ccccc2nc1OCC(=O)NCC(F)(F)F	15	i	1	-2	-2	-2	1	1
COc1ccc(OC)c(C2/C(=C(/O)c3ccc(C)cc3)C(=O)C(=O)N2Cc2ccco2)c1 (stereo unspecified)	-30	i	/	4	7	-2	-5	-9
COc1ccccc1CNC(=O)c1cc(S(=O)(=O)N2CCOCC2)cn1C	14	i	-6	1	1	-2	-6	-4
Cc1cccn2c(=O)c(/C=C(\C#N)C(=O)NCc3ccco3)c(N3CCCCCC3)nc12	5	i	-11	-2	-3	5	-2	-5
COC(=O)C1=C[C@@H](C(=O)OC)[C@@H]2C3=C(C(=O)C2(C)C)[C@H](c2ccccc2)[C@@H]2C(=O)N(C)C(=O)[C@@H]2[C@@H]3C1	1	i	4	-4	3	/	/	-5
CCOc1ccc(NC(=O)CN(C)C(=O)C2CCCC2)cc1OCC	-11	i	/	0	0	-1	0	-8
CN1CCN(/N=C/c2nc(-c3ccc(Cl)cc3)n3ccccc23)CC1	-14	i	/	-7	4	1	-2	1
CCCCc1cc(=O)oc2c(C)c(OCC(=O)NCC3CCC(C(=O)O)CC3)ccc12 (stereo unspecified)	/	i	-12	1	-1	-9	17	-8
CC1CCCN(C(=O)C(Cc2ccccc2)n2cccc2)C1 (stereo unspecified)	1	i	11	0	3	7	-2	0
CCN(CC)S(=O)(=O)c1cc(NS(=O)(=O)c2ccccc2)ccc1C	12	i	/	4	-8	-4	9	4
COc1ccccc1-n1cnnc1SCC(=O)NCC1CCCO1 (stereo unspecified)	1	i	/	-3	1	-1	-7	-1
CC(C)c1ccccc1NC(=O)CC1(CC(=O)O)CCCC1	-12	i	/	-3	-2	0	-3	-2
COc1ccc(NC(=O)C2CCN(S(=O)(=O)c3c(C)nn(C)c3C)CC2)cc1	0	i	2	0	2	-11	-2	8
c1ccc(-c2nc3nonc3c3nc4ccccc4n23)cc1	/	i	/	2	-1	-12	1	17
CCOc1ccccc1N1CC(C(=O)Nc2cc(S(C)(=O)=O)ccc2Cl)CC1=O (stereo unspecified)	/	i	-4	2	-2	/	/	-4
CC(C)(C)NC(=O)CSc1nc(N)cc(=O)[nH]1	-5	i	-7	2	3	2	-13	-10
NC(=O)COC(=O)c1ccccc1OCc1ccccc1	-6	i	/	0	2	2	-13	-6
CCOC(=O)c1ccc2ncc(C(=O)OCC)c(NCCN(C)C)c2c1	-8	i	-9	-14	3	/	/	-12
COc1ccc(Cl)cc1NC(=O)CSc1nnc(Cc2cccn2C)n1-c1ccc(F)cc1	17	i	-14	-15	-6	-7	-30	12
O=C(CN1CCOCC1)Nc1ncccn1	2	i	-27	4	4	1	-6	-14
COc1cc(CN2C(=O)C(C)ON=C2c2ccccc2F)cc(OC)c1 (stereo unspecified)	10	/	-16	1	1	/	/	/
O=C1COc2ccc(C(=O)COC(=O)c3nc(Cl)ccc3Cl)cc2N1	7	/	-18	2	2	/	/	/
Cc1cccc(N2CCN(C(=O)c3cccn4c(=O)c5c(C)c(C)sc5nc34)CC2)c1C	-36	i	-2	-4	1	-7	-12	-2
CC(C)OC(=O)COc1cc(O)c2c(=O)cc(-c3ccccc3)oc2c1	-9	i	/	2	-1	11	-8	-26
CSc1ccc(C(=O)C2CCCN(C(=O)CCc3c(C)nn(C)c3C)C2)cc1 (stereo unspecified)	16	i	-16	4	-30	2	2	-5
CN(C(=O)CSc1ncnc2scc(-c3ccccc3)c12)C1CCS(=O)(=O)C1 (stereo unspecified)	2	i	/	-6	-4	-6	-8	3
Cc1cccc(/C(N)=N/OC(=O)COc2ccc(Cl)cc2)c1	-4	i	-10	-2	2	3	0	-2
COc1ccc(CCN2CCCn3c2nc2c3c(=O)n(CC(C)C)c(=O)n2C)cc1OC	27	i	-4	-4	-12	-6	12	2
NC(=O)c1ccc(NC(=O)COC(=O)C2CC(=O)N(Cc3ccccc3)C2)cc1 (stereo unspecified)	-1	i	-12	0	-1	8	-1	8
Cc1cccc2sc(NC(=O)CSCc3ccccc3)nc12	-12	i	/	-8	-5	-6	-16	/

Screening results from PubChem BioAssay.
